Source: PubChem BioAssay (Broad Institute)
Env fusion inh: inhibitors of HIV Env-mediated cell fusion; 1.1% of 360,000 active; inhibition, % at 12.3 µM; HeLa-JRFL Env/CEM21 cell fusion, luciferase;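 active = mean replicate inhibition score of at least 50 and every replicate individually at or above 50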;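 also: 0% = plate neutral controls and 100% = maraviroc near 300 nM; one replicate is shown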
Yeast UUG start: modulators of start codon recognition fidelity in yeast; AID 602363; activity score, % at 18.7 µM; S. cerevisiae UUG-firefly luciferase reporter, luminescence/redox ratio; 0.13% of 350,000 active;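 active = replicate mean at a twofold rise or more, about +100% in these data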;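 also: firefly luciferase made from a UUG start codon reports start codon fidelity; reporter light over untreated wells divided by growth signal over untreated wells; some hits fall short of that in this replicate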
Starred values were filed as active, the others as inactive; [ ] = another dose, or the depositor's remark. Not all compounds are listed. The share of hits here may be higher or lower than overall.

SMILES | Env fusion inh | Yeast UUG start
C[C@H](CO)N1C[C@H](C)[C@@H](CN(C)C(=O)c2ccncc2)OCCCC[C@H](C)Oc2ccc(NS(=O)(=O)c3ccc(F)cc3)cc2C1=O | 19.4[16.7 µM] | -1.8
Cc1ccc(S(=O)(=O)N[C@@H]2CC[C@@H](CCNC(=O)C3CCC3)O[C@H]2CO)cc1 | 7.5[16.7 µM] | 2.0
C[C@@H]1CN([C@H](C)CO)C(=O)c2cc(NC(=O)Nc3ccc4c(c3)OCO4)ccc2O[C@@H]1CN(C)Cc1ccc(-c2ccccc2)cc1 | 17.5[16.7 µM] | -1.7
Cc1ccccc1-c1cnc2c(c1)C(=O)N([C@@H](C)CO)C[C@H](C)[C@H](CN(C)C(=O)c1ccccc1)O2 | 19.5[16.7 µM] | -6.4
O=C(C[C@@H]1CC[C@@H](NC(=O)NC2CCCCC2)[C@@H](CO)O1)NCc1ccc(F)cc1 | -17.6[16.7 µM] | -8.4
COCC#Cc1cnc2c(c1)C(=O)N([C@H](C)CO)C[C@H](C)[C@@H](CN(C)C(=O)Cc1ccncc1)O2 | -14.4[16.7 µM] | 17.1
Cc1ccc(S(=O)(=O)N(C)C[C@H]2Oc3ccc(NS(=O)(=O)c4ccc(Cl)cc4)cc3CC(=O)N([C@@H](C)CO)C[C@@H]2C)cc1 | -14.6[16.7 µM] | 13.6
C[C@@H]1CCCCO[C@@H](CN(C)C(=O)Nc2ccc3c(c2)OCO3)[C@H](C)CN([C@H](C)CO)C(=O)c2cc(NC(=O)CCCN(C)C)ccc2O1 | 3.9[16.7 µM] | 9.1
CCCNC(=O)N[C@H]1CC[C@H](CC(=O)NCCc2ccccc2)O[C@@H]1CO | 4.8[16.7 µM] | -14.8
COc1ccc(NC(=O)N(C)C[C@@H]2OCCCC[C@H](C)Oc3ccc(NC(=O)C4CCCCC4)cc3C(=O)N([C@H](C)CO)C[C@@H]2C)cc1 | -18.1[16.7 µM] | -8.3
COc1ccccc1CNC(=O)C[C@H]1C[C@@H]2c3cc(NC(=O)C4CCC4)ccc3O[C@@H]2[C@H](CO)O1 | -10.5[16.7 µM] | -5.3
Cc1ccc(S(=O)(=O)Nc2ccc3c(c2)C(=O)N([C@H](C)CO)C[C@@H](C)[C@H](CN(C)C(=O)CCC(F)(F)F)OCCCC[C@@H](C)O3)cc1 | -29.6[16.7 µM] | -9.8
C[C@@H]1CN([C@H](C)CO)C(=O)c2cc(C#C[C@@H](C)O)cnc2O[C@@H]1CN(C)C(=O)c1ccccc1F | -3.2[16.7 µM] | 10.4
C[C@H]1CCCCO[C@@H](CN(C)S(=O)(=O)c2cn(C)cn2)[C@@H](C)CN([C@@H](C)CO)C(=O)c2cc(NS(=O)(=O)c3ccccc3)ccc2O1 | 7.4[16.7 µM] | 3.8
C/C(CC(=O)Nc1ccc(N(C)C)cc1)=N\NC(=O)c1ccccc1Cl | 9.8 | -7.2
O=C(C[C@@H]1C=C[C@H](NC(=O)Nc2ccc3c(c2)OCO3)[C@H](CO)O1)NCc1ccc(F)cc1 | 25.1[16.7 µM] | -11.3
Cc1ccccc1S(=O)(=O)NCC[C@H]1CC[C@H](NC(=O)C2CC2)[C@@H](CO)O1 | 2.5[16.7 µM] | -6.2
CNC[C@@H]1Oc2cc(-c3cncnc3)ccc2S(=O)(=O)N([C@@H](C)CO)C[C@H]1C | 0.2[16.7 µM] | 6.5
CC(C)NC(=O)N(C)C[C@@H]1Oc2ccc(NC(=O)Nc3ccc4c(c3)OCO4)cc2CC(=O)N([C@H](C)CO)C[C@@H]1C | -26.4[16.7 µM] | 3.0
CCC(=O)N(C)C[C@@H]1Oc2cc(C#Cc3ccccc3)ccc2S(=O)(=O)N([C@@H](C)CO)C[C@@H]1C | 7.6[16.7 µM] | 183.4*
C[C@H](CO)N1C[C@H](C)[C@@H](CN(C)C(=O)NC2CCCCC2)Oc2ncc(-c3ccccc3F)cc2C1=O | 33.3[16.7 µM] | 5.9
CCCC#Cc1ccc2c(c1)O[C@@H](CN(C)C(=O)CC)[C@@H](C)CN([C@H](C)CO)S2(=O)=O | -5.0[16.7 µM] | -6.8
O=C(C[C@H]1C[C@H]2c3cc(NC(=O)Cc4ccncc4)ccc3O[C@H]2[C@@H](CO)O1)NCc1cc(F)ccc1F | 8.9[16.7 µM] | -6.8
CO[C@@H]1CN(C)C(=O)c2cc(NC(=O)Cc3ccccc3)ccc2OC[C@H](C)N(C)C[C@H]1C | -0.9[16.7 µM] | 12.4
C[C@@H]1CCCCO[C@H](CN(C)C(=O)c2ccccc2)[C@H](C)CN([C@H](C)CO)C(=O)c2cc(NS(=O)(=O)c3ccc(Cl)cc3)ccc2O1 | -32.2[16.7 µM] | 24.6
Cc1ccc(S(=O)(=O)N(C)C[C@@H]2OCCCC[C@@H](C)Oc3ccc(NS(=O)(=O)c4ccc(F)cc4)cc3C(=O)N([C@H](C)CO)C[C@@H]2C)cc1 | 4.8[16.7 µM] | 8.8
O=C(C[C@@H]1CC[C@@H](NC(=O)C2CCOCC2)[C@H](CO)O1)NCc1ccccc1Cl | 28.4[16.7 µM] | 2.2
C[C@H]1CN([C@@H](C)CO)S(=O)(=O)c2ccc(C#Cc3ccccc3)cc2O[C@@H]1CN(C)C(=O)CN(C)C | 14.9[16.7 µM] | 22.7
COc1ccccc1C(=O)Nc1ccc2c(c1)OC[C@@H](C)NC[C@H](C)[C@H](OC)CN(C)C2=O | 2.0[16.7 µM] | -8.3
C[C@H]1CN([C@@H](C)CO)C(=O)c2cc(C3=CCCC3)cnc2O[C@H]1CN(C)C(=O)c1ccccc1 | -15.3[16.7 µM] | 11.0
Cc1ccc(S(=O)(=O)N(C)C[C@@H]2Oc3ccc(NS(=O)(=O)c4cccs4)cc3C(=O)N([C@@H](C)CO)C[C@H]2C)cc1 | -18.1[16.7 µM] | 5.4
CNC[C@@H]1Oc2ccc(NC(=O)Cc3ccccc3)cc2CC(=O)N([C@H](C)CO)C[C@@H]1C | 8.8[16.7 µM] | 6.5
C[C@H]1CN([C@@H](C)CO)S(=O)(=O)c2ccc(C#CC3CCCCC3)cc2O[C@H]1CN(C)C(=O)Cc1ccncc1 | 6.2[16.7 µM] | 11.2
C[C@@H]1CN([C@H](C)CO)C(=O)c2cccc(NC(=O)c3cnccn3)c2O[C@H]1CN(C)C(=O)NC1CCCCC1 | 0.7[16.7 µM] | -0.1
O=C(C[C@@H]1C=C[C@H](NS(=O)(=O)c2ccccc2)[C@H](CO)O1)N1CCc2ccccc2C1 | 15.0[16.7 µM] | -15.2
C[C@@H]1CN([C@@H](C)CO)C(=O)Cc2cc(N(C)C)ccc2O[C@@H]1CN(C)C(=O)NC1CCCCC1 | -5.2[16.7 µM] | 5.0
Cc1ccc(S(=O)(=O)N(C)C[C@H]2Oc3cc(-c4cccc(F)c4)ccc3S(=O)(=O)N([C@H](C)CO)C[C@@H]2C)cc1 | 24.5[16.7 µM] | 4.1
C[C@H](CO)N1C[C@H](C)[C@H](CN(C)C(=O)Nc2cccc3ccccc23)Oc2ccc(NC(=O)CCN3CCOCC3)cc2C1=O | 21.9[16.7 µM] | 4.7
CO[C@H]1CN(C)C(=O)c2ccc(NC(=O)NC(C)C)cc2OC[C@@H](C)N(CCC(F)(F)F)C[C@H]1C | -16.7[16.7 µM] | 29.2
C[C@@H]1CCCCO[C@H](CN(C)Cc2ccc(C(F)(F)F)cc2)[C@@H](C)CN([C@@H](C)CO)C(=O)c2cc(NC(=O)CCCN(C)C)ccc2O1 | -27.1[16.7 µM] | 3.6
C[C@@H]1CN([C@@H](C)CO)C(=O)Cc2cc(NS(C)(=O)=O)ccc2O[C@@H]1CN(C)S(=O)(=O)c1ccccc1 | -15.2[16.7 µM] | -4.2
CCCN(C)C[C@@H]1Oc2ncc(-c3cccnc3)cc2C(=O)N([C@@H](C)CO)C[C@@H]1C | -29.7[16.7 µM] | -6.9
O=C(NC1CCCCC1)N[C@@H]1CC[C@@H](CCNS(=O)(=O)c2ccccc2)O[C@@H]1CO | -6.9[16.7 µM] | -10.8
O=C(Cc1ccccn1)NCC[C@H]1CC[C@@H](NS(=O)(=O)c2ccc(Cl)cc2)[C@@H](CO)O1 | 7.5[16.7 µM] | -8.0
CC(C)NC(=O)Nc1ccc2c(c1)CC(=O)N([C@H](C)CO)C[C@H](C)[C@H](CN(C)S(C)(=O)=O)O2 | 9.5[16.7 µM] | 3.0
COc1ccc(NC(=O)N(C)C[C@@H]2OCCCC[C@@H](C)Oc3ccc(NS(=O)(=O)c4ccc(Cl)cc4)cc3C(=O)N([C@@H](C)CO)C[C@H]2C)cc1 | -22.1[16.7 µM] | 0.3
C[C@H]1CN([C@@H](C)CO)C(=O)c2cccc(NC(=O)Nc3ccccc3)c2O[C@@H]1CN(C)Cc1ccc(C(=O)Nc2ccccc2N)cc1 | -28.9[16.7 µM] | -0.5
Cc1ccc(S(=O)(=O)N(C)C[C@H]2Oc3ccc(NC(=O)CCCCCC(=O)Nc4ccccc4N)cc3C(=O)N([C@@H](C)CO)C[C@H]2C)cc1 | 4.5[16.7 µM] | -7.7
O=C(Nc1ccc2c(c1)[C@@H]1C[C@H](CC(=O)N3CCOCC3)O[C@H](CO)[C@@H]1O2)NC1CCCCC1 | -13.4[16.7 µM] | -4.1
COCC#Cc1cnc2c(c1)C(=O)N([C@@H](C)CO)C[C@@H](C)[C@H](CN(C)C(=O)Nc1ccccc1F)O2 | -6.9[16.7 µM] | 10.9
COc1ccc(CN(C)C[C@@H]2OCCCC[C@@H](C)Oc3ccc(NC(=O)Nc4ccc(F)cc4)cc3C(=O)N([C@@H](C)CO)C[C@@H]2C)cc1 | -11.9[16.7 µM] | 17.9
C[C@@H]1CN([C@H](C)CO)C(=O)c2cc(NS(=O)(=O)c3ccccc3)ccc2O[C@@H](C)CCCCO[C@@H]1CN(C)Cc1ccncc1 | -12.5[16.7 µM] | -9.5
Cc1ccc(S(=O)(=O)NCC[C@@H]2CC[C@H](NC(=O)C3CCOCC3)[C@@H](CO)O2)cc1 | -306.2[16.7 µM] | 7.8
C[C@@H]1CN([C@H](C)CO)C(=O)c2cccc(NC(=O)Nc3ccc(F)cc3)c2O[C@@H]1CN(C)C(=O)Nc1ccc(C(F)(F)F)cc1 | -3.6[16.7 µM] | -14.6
C[C@H](CO)N1C[C@H](C)[C@@H](CN(C)S(C)(=O)=O)Oc2c(cccc2N(C)C)C1=O | -12.6[16.7 µM] | 8.8
O=C(C[C@H]1C=C[C@H](NS(=O)(=O)c2ccc(F)cc2)[C@@H](CO)O1)N1CCc2ccccc2C1 | 26.8[16.7 µM] | 1.8
O=C(C[C@@H]1C[C@H]2c3cc(NC(=O)Nc4ccccc4F)ccc3O[C@H]2[C@H](CO)O1)NCc1cc(F)ccc1F | 30.9[16.7 µM] | 7.6
Cc1ccc(-c2ccc3c(c2)O[C@@H](CN(C)C(=O)Nc2ccccc2)[C@@H](C)CN([C@H](C)CO)S3(=O)=O)cc1 | 28.8[16.7 µM] | 4.3
C[C@@H]1CN([C@H](C)CO)S(=O)(=O)c2ccc(C#Cc3ccncc3)cc2O[C@@H]1CN(C)C(=O)C1CCC1 | -43.4[16.7 µM] | 9.1
COc1ccc(S(=O)(=O)N(C)C[C@@H]2Oc3ccc(N(C)C)cc3C(=O)N([C@@H](C)CO)C[C@H]2C)cc1 | 0.4[16.7 µM] | 9.8

Of the compounds above, four have a CF3 group.
SMILES | Env fusion inh | Yeast UUG start
Cc1ccc(S(=O)(=O)Nc2ccc3c(c2)C(=O)N([C@H](C)CO)C[C@@H](C)[C@H](CN(C)C(=O)CCC(F)(F)F)OCCCC[C@@H](C)O3)cc1 | -29.6[16.7 µM] | -9.8
CO[C@H]1CN(C)C(=O)c2ccc(NC(=O)NC(C)C)cc2OC[C@@H](C)N(CCC(F)(F)F)C[C@H]1C | -16.7[16.7 µM] | 29.2
C[C@@H]1CCCCO[C@H](CN(C)Cc2ccc(C(F)(F)F)cc2)[C@@H](C)CN([C@@H](C)CO)C(=O)c2cc(NC(=O)CCCN(C)C)ccc2O1 | -27.1[16.7 µM] | 3.6
C[C@@H]1CN([C@H](C)CO)C(=O)c2cccc(NC(=O)Nc3ccc(F)cc3)c2O[C@@H]1CN(C)C(=O)Nc1ccc(C(F)(F)F)cc1 | -3.6[16.7 µM] | -14.6

The listing continues.
SMILES | Env fusion inh | Yeast UUG start
Cc1noc(C)c1S(=O)(=O)Nc1ccc2c(c1)C(=O)N([C@@H](C)CO)C[C@@H](C)[C@H](CN(C)Cc1ccncc1)O2 | 0.4[16.7 µM] | 8.3
CC(C)C#Cc1ccc2c(c1)O[C@@H](CN(C)C(=O)Nc1ccccc1)[C@H](C)CN([C@H](C)CO)S2(=O)=O | -9.5[16.7 µM] | -2.6
C[C@H](CO)N1C[C@H](C)[C@H](CN(C)Cc2ccc(-c3ccccc3)cc2)Oc2cc(C#CC(C)(C)O)ccc2S1(=O)=O | 26.5[16.7 µM] | -1.9
C[C@@H]1CCCCO[C@@H](CN(C)S(=O)(=O)c2ccc(Cl)cc2)[C@H](C)CN([C@@H](C)CO)C(=O)c2cc(NC(=O)CCCN(C)C)ccc2O1 | -8.4[16.7 µM] | -3.2
O=C(Nc1ccccc1)N[C@H]1CC[C@H](CCNS(=O)(=O)c2ccccc2F)O[C@@H]1CO | -4.1[16.7 µM] | 2.5
CCCNC(=O)N[C@@H]1CC[C@H](CC(=O)NC2CCCCC2)O[C@@H]1CO | -1.2[16.7 µM] | -0.6
COCC(=O)N(C)C[C@H]1Oc2cc(-c3ccc(OC)cc3)ccc2S(=O)(=O)N([C@@H](C)CO)C[C@H]1C | -4.5[16.7 µM] | -9.0
CC(C)CC#Cc1cnc2c(c1)C(=O)N([C@H](C)CO)C[C@@H](C)[C@@H](CN(C)S(C)(=O)=O)O2 | -76.5[16.7 µM] | 12.3
C[C@H](NC(=O)C[C@@H]1C=C[C@@H](NS(=O)(=O)c2cccc(F)c2)[C@H](CO)O1)c1ccccc1 | -6.0[16.7 µM] | -4.7
